# Assay outcomes from PubChem.
# GLA inh pH 4.5 = blocks human alpha-galactosidase A at pH 4.5; P06280; purified enzyme, 4-MU-alpha-Gal fluorescence, pH 4.5; activity change, negative = inhibition, % at 105 µM; 230,000 tested, under 10 active; inconclusive = small, poorly fitted or top-dose-only inhibition, or a rising curve; inactive = flat fitted curve, though single readings scatter; no compound was filed as active;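 also: 0% = full activity with enzyme and -100% = basal without enzyme; dose as in the result columns while the protocol names 77 µM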
# Rango dissoc inh = prevents RanGTP from dissociating the Rango-importin beta complex | 340,000 compounds, 0.071% hits | Biochemical FRET Rango-importin beta, RanGTP-induced dissociation | Potency, µM (highest dose often 46.1 µM), for the others: at the highest dose activity change, negative = inhibition | O95149+P62826; active means falling FRET ratio curve, often poorly fitted, with flat reads before Ran was added; inconclusive means other falling curves, or compound fluorescence or quenching; inactive means flat or rising ratio curve;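 also: potency is read from the fitted curve at half-maximal effect; % of control where 0% means no effect; nearly all actives have a fitted effect of over 45% in size; -100% = wells without RanGTP and RCC1; the record marks most hits as doubtful in a second field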
#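 Quantitative HTS using a FRET biosensor: 0.1 uM Rango, 0.25 uM importin beta, 0.6 uM Ran, 2 mM GTP, 0.2 uM RCC1 final, PBS with DTT, Tween-20 and BSA. Post-read taken 45 min after Ran addition.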
# Rango complex inh = inhibitors of Rango-importin beta complex formation | Q14974 | Rango CFP/YFP FRET sensor + importin beta, 45 min | Potency, µM (series often up to 92.2 µM), inactives show top-dose inhibition of complex formation | 340,000 compounds, 0.031% hits | AID 540263; active = rising FRET ratio curve, often small or poorly fitted; inconclusive = mostly compound fluorescence or quenching in the first reads; inactive = flat curves in all reads;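 also: potency is read from the fitted curve at half-maximal effect; 0% = DMSO wells and 100% = buffer wells lacking importin beta; nearly all actives have a fitted effect of over 15% in size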
# Target sequence (Q14974 whole entry, looked up): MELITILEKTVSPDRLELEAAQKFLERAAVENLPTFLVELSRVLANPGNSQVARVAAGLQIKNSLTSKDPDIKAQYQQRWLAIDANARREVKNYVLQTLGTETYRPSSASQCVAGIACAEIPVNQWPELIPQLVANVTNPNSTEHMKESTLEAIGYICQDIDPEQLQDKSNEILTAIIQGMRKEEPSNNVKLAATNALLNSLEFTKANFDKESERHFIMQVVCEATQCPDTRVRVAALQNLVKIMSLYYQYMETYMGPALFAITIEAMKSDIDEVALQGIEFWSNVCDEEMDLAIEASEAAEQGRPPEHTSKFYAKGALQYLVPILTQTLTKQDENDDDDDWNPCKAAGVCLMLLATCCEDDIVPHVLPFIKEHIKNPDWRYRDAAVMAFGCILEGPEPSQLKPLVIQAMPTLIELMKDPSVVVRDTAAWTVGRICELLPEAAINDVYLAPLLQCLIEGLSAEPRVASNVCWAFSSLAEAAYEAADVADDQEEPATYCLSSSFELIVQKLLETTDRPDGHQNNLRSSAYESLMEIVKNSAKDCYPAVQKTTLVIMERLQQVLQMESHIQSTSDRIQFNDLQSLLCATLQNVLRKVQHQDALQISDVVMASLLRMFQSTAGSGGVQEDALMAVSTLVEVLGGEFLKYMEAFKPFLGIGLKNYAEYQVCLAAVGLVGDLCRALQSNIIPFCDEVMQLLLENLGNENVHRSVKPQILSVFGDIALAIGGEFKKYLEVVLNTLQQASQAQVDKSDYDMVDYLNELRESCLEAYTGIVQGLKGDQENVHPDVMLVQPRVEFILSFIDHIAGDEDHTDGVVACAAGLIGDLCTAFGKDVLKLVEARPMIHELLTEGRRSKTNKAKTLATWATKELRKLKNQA
#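 Inhibition scored from the CFP 486 nm/YFP 530 nm FRET ratio 45 min after adding 0.125 microM importin beta to 50 nM Rango biosensor preincubated 5 min with compound (room temperature, PBS with DTT, Tween-20, BSA). No-importin wells as positive control.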
# miR-21 FLuc = raises the signal of a miR-21 reporter. HeLa miR-21 FLuc reporter, luciferase, 48 h. Potency, µM (highest dose often 38.3 µM), without a hit: at the highest dose reporter change, positive = more light. 340,000 tested, under 10 active. AID 2288; active = well fitted rising curve with a large enough effect; inconclusive = small, poorly fitted or top-dose-only effect; inactive = no such curve, though single readings can be large or run the other way;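 also: % of control where 0% means no effect; miR-21 action dims this reporter so a rising signal means less miR-21 action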
#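 HeLa cells endogenously expressing miR-21, stably carrying CMV-driven firefly luciferase with a downstream miR-21 binding site, 2000 cells/well. Titrations up to approximately 40 uM, 48 hours; luciferase luminescence read.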
# * marks the source's active call; other numbers are inactive results; ? = inconclusive; / = no result given; & = joins results of further samples. An excerpt; rates above refer to the full screens.
SMILES,GLA inh pH 4.5,Rango dissoc inh,Rango complex inh,miR-21 FLuc
COc1cc(/C=C2/C(=N)N3C=CSC3=NC2=O)ccc1OCCOc1ccc(NC(C)=O)cc1,-13,?,?,-1%
O=C(CCNC(=O)c1ccc(Br)cc1)NCC1CCCO1 (stereo not given),/,13%,2.1%,/
O=C(COC(=O)c1ccccc1)c1ccc(S(=O)(=O)N2CCCCC2)cc1,/,9%,-0.1%,/
CCCOCC1CC2(SC(=Nc3ccc(C)cc3)NC2=O)C(=O)O1 (stereo not given),-2,-6%,4.2%,-3%
O=C1CC(SCCc2nc3ccccc3[nH]2)C(=O)N1c1ccc(F)c(Cl)c1 (stereo not given),/,-3%,-0.4%,/
CC(C)OC(=O)CC(NC(=O)OC(C)(C)C)c1ccccc1 (stereo not given),-1&-5,-8%,-4.2%,-1%
N#CC1=C(SCc2ccccc2)NC(=O)CC1c1ccc(O)cc1 (stereo not given),-11,22%,0.3%,2%
CSc1nc(C)[nH]c(=O)c1C#N,-10,-16%,0.0%,0%
COc1ccc(-n2ncc(C(C)NS(=O)(=O)c3cccs3)c2C)cc1 (stereo not given),/,9%,4.0%,4%
COc1ccc(OC)c(CNC(=O)CCc2cn(C)c3ccccc23)c1,/,1%,-0.3%,3%
CCCNC(=O)C(Cc1cccc(Br)c1)NC(=O)c1ccc(C#N)cc1 (stereo not given),/,-9%,-0.9%,/
COC(=O)c1[nH]c2ccc(Br)cc2c1NC(=O)CN1CCCc2ccccc21,-1,-3%,-0.5%,-3%
CC(C)(C)C1CCc2nc(NC(=O)Cc3cn4ccsc4n3)sc2C1 (stereo not given),-12,-7%,1.5%,-55%
O=S(=O)(NCc1cc(-c2ccccc2Cl)no1)c1ccc(Cl)cc1,-1,-3%,1.9%,0%
CCCCCOc1ccc(C(C)(O)C(CN2CCOCC2)c2ccccc2)cc1 (stereo not given),/,-12%,-0.3%,6%
COc1ccc(NC(=O)C(c2ccc(OC)cc2)N(C)C(=O)c2cnccn2)cc1 (stereo not given),-7,-7%,0.7%,-3%
O=C(CSc1cn(CCNC(=O)c2c(F)cccc2F)c2ccccc12)NCC1CCCO1 (stereo not given),/,-6%,-3.1%,12%
O=C(/C=C/c1ccccc1F)c1ccoc1,-2,-2%,1.7%,-2%
COc1ccc(S(=O)(=O)Cc2ccc(C(=O)NCc3ccc(F)cc3)o2)cc1,-3,/,/,11%
Cc1ccc(S(=O)(=O)NCCC(=O)NCCc2ccccc2)cc1,/,-5%,0.9%,/
Cc1c(C(=O)NNC(=O)c2cccnc2)cccc1[N+](=O)[O-],/,-16%,-0.8%,/
CCCc1cc(=O)[nH]c(SCC(=O)Nc2ccc(C)cc2)n1,-1,16%,5.0%,-5%
COCCn1c(CN2CCN(c3cccc(Cl)c3)CC2)nc2c1c(=O)n(C)c(=O)n2C,-4,1%,-3.0%,11%
N#Cc1cccc(C(=O)Nc2ccccc2C(=O)NC2CC2)c1,/,-14%,-2.7%,/
C/C(=C\c1ccccc1)CN1CCN(C)CC1,/,-24%,0.9%,-2%
CC(=O)Nc1ccc(C(=O)OCC(=O)Nc2c(C)n(C)n(-c3ccccc3)c2=O)cc1,/,20%,0.4%,/
COC(=O)c1ccccc1NC(=O)CSCC(=O)Nc1ccccc1,11,1%,6.4%,-2%
CCOC(=O)c1c(NC(=O)CSc2nnnn2-c2ccccc2)sc2c1CCC(C)C2 (stereo not given),7,-12%,0.2%,-8%
CNC(=S)NC1CC2CCC(C1)N2Cc1ccccc1 (stereo not given),3,-5%,11%,-4%
Cc1nc(NC(=O)CCC(=O)O)sc1C(=O)N(C)C,-2,-2%,0.1%,0%
CN(C)S(=O)(=O)c1ccc2c(c1)c(=O)c(C(=O)N1CCN(c3ccccn3)CC1)cn2C,9,-2%,0.1%,6%
O=C(Nc1c(C(=O)N2CCCC2)cnn1-c1ccccc1)c1cccc(F)c1,2,-1%,0.2%,-7%
CCn1c(CCNC(=O)c2cccs2)nnc1SCC(=O)Nc1cccc(Cl)c1,/,28%,-0.2%,/
COc1ccccc1-n1c(SCC(=O)O)nc2c(sc(=S)n2-c2ccc(Cl)c(C)c2)c1=O,/,-3%,-0.7%,-3%
O=C(N=C1SC2CS(=O)(=O)CC2N1c1ccc(Cl)cc1)C1CCCO1 (stereo not given),/,3%,-3.9%,1%
Cc1cc(C)c(C(=O)Nc2cccc(F)c2)c(Cl)n1,-3,3%,-0.2%,3%
CNC(=O)C1CC(=O)N(CCc2ccc(C)cc2)C1 (stereo not given),/,-3%,-1.0%,-1%
Clc1ccc(CNc2nc(CN3CCOCC3)nc3scc(-c4ccccc4)c23)cc1,9,16%,-5.1%,1%
COc1ccc(CCNc2cc(C)nc(N)n2)cc1OC,/,10%,-2.2%,1%
O=C(CN1C(=O)NC(CCc2ccccc2)C1=O)Nc1ccccc1C(F)(F)F (stereo not given),/,13%,1.9%,/
CCCn1cc(CN2CCC(n3nccc3NC(=O)c3ccccc3)CC2)c(C)n1,/,9%,0.3%,-1%
Cc1ccc(-c2ccc(CCC(=O)O)o2)cc1,7,-9%,2.1%,-21%
CN(Cc1cccnc1)C(=O)CC1C(=O)NCCN1CC(c1ccccc1)c1ccccc1 (stereo not given),0,-8%,-1.7%,-2%
Fc1ccc(-c2csc(NC3=NCCC3)n2)cc1,4,13%,2.6%,-25%
O=C(c1cccs1)N(CCO)Cc1cc2cc3c(cc2[nH]c1=O)OCCO3,0,/,/,-17%
CN(N=Cc1cccc2cccnc12)c1ccc([N+](=O)[O-])cc1[N+](=O)[O-],/,-7%,7.2%,/
Nc1nnc(SCC(=O)N2CCN(c3ccccc3)CC2)s1,-1,23%,-0.1%,1%
CCc1ccc(NC(=O)N(Cc2cccnc2)Cc2ccco2)cc1,9,6%,0.9%,-10%
CCCCCC1CCC(c2ccc(/C(N)=N/O)cc2)CC1 (stereo not given),4,2%,-0.4%,1%
Cc1ccc(S(=O)(=O)N2CCN(C)CC2)cc1C,/,-7%,?,-1%
O=C(Nc1ccc(N2CCOCC2)cc1)c1cc(F)c(F)cc1Cl,1,5%,-0.1%,-48%
O=C(NCc1ccccn1)c1cn(Cc2ccccc2)nn1,5,26%,-3.0%,-9%
COC(=O)CN1C(c2ccc(Cl)cc2)=Nc2ccc(Cl)cc2C1c1ccccc1 (stereo not given),-14,15%,13%,-4%
CCC(C)NC(=O)c1cc2cc3ccc(OC)cc3nc2o1 (stereo not given),/,16%,0.9%,-44%
C=C(C)c1ccc(C(C)(C)NC(=O)N2CCN(C)CC2)cc1,1,?,-4.8%,-9%
Cc1ccccc1NC(=O)c1ccc2c(c1)CCN2S(C)(=O)=O,/,23%,-3.6%,-16%
NC(=O)Cn1cc(/C=N/NC(=O)c2ccc(Cn3cc(Cl)cn3)o2)c(-c2ccccc2)n1,/,-16%,-0.5%,1%
CCCc1cc(=O)[nH]c(SCC(=O)c2ccc(S(=O)(=O)N3CCCC3)cc2)n1,3,21%,-1.2%,-11%
CCOC(=O)C(=O)N1CCN(CC)CC1,-2,8%,1.0%,-1%
COc1cccc(CNCc2ccccc2OC)c1,/,-5%,-5.0%,3%

# The last 3 entries of the section before open the next one.
SMILES,GLA inh pH 4.5,Rango dissoc inh,Rango complex inh,miR-21 FLuc
CCCc1cc(=O)[nH]c(SCC(=O)c2ccc(S(=O)(=O)N3CCCC3)cc2)n1,3,21%,-1.2%,-11%
CCOC(=O)C(=O)N1CCN(CC)CC1,-2,8%,1.0%,-1%
COc1cccc(CNCc2ccccc2OC)c1,/,-5%,-5.0%,3%
CC(C)(C)NC(=O)C(c1ccncc1)N(C(=O)Cn1nnc(-c2ccc(F)cc2)n1)c1ccccc1 (stereo not given),2,1%,0.4%,-11%
Cc1ccc(Sc2ccc(C(=O)N(C)C)cc2[N+](=O)[O-])cc1,-26,16%,2.3%,-6%
Cc1ccc2cc3c(NC(=O)c4cccnc4)nn(C)c3nc2c1,2,?,?,0%
CSc1ccccc1NC(=O)COC(=O)c1ccc(O)cc1,5,0%,4.7%,5%
O=C(CSc1ncc(C(=O)O)n1-c1ccc(F)cc1)NCc1ccc2c(c1)OCO2,-2,-15%,5.2%,0%
CNC(=S)N/N=C/c1cn(Cc2ccc(C)cc2)c2ccccc12,3,3%,-0.5%,13%
Cn1cc(C=O)c2cc(F)ccc21,-1,-3%,3.1%,1%
Cn1nc(-c2ccccc2)cc1NC(=O)Nc1ccccc1F,-9,-15%,-1.1%,-30%
CC(=O)N1CCc2cc(S(=O)(=O)NCCCOC(C)C)ccc21,-7,5%,-4.4%,0%
O=C(c1nnc(-c2ccncc2)o1)c1ccccc1Cl,0,7%,-4.3%,-6%
Clc1ccc(-c2nnc(SCc3nc4ccccc4s3)o2)cc1,4,-10%,-0.6%,-45%
CCCCn1c(N)c(N(CCC(C)C)C(=O)CSc2nnc(C)s2)c(=O)[nH]c1=O,1,7%,-0.7%,3%
Cc1ccccc1C(=O)NNC(=O)Cc1ccccc1,-11,-9%,1.4%,0%
COc1ccccc1NC(=O)C1CCC(CNc2c(N3CCCCC3)c(=O)c2=O)CC1 (stereo not given),1,0%,-1.6%,7%
CC(=O)c1ccc(NC(=O)Nc2ccc([N+](=O)[O-])cc2C)cc1,-3,-14%,-2.3%,-18%

# Entries listed so far with a nitro group on carbon:
SMILES,GLA inh pH 4.5,Rango dissoc inh,Rango complex inh,miR-21 FLuc
Cc1c(C(=O)NNC(=O)c2cccnc2)cccc1[N+](=O)[O-],/,-16%,-0.8%,/
CN(N=Cc1cccc2cccnc12)c1ccc([N+](=O)[O-])cc1[N+](=O)[O-],/,-7%,7.2%,/
Cc1ccc(Sc2ccc(C(=O)N(C)C)cc2[N+](=O)[O-])cc1,-26,16%,2.3%,-6%
CC(=O)c1ccc(NC(=O)Nc2ccc([N+](=O)[O-])cc2C)cc1,-3,-14%,-2.3%,-18%

# Next records
SMILES,GLA inh pH 4.5,Rango dissoc inh,Rango complex inh,miR-21 FLuc
CC(OC(=O)CCCC(=O)Nc1ccc(F)cc1)C(=O)c1ccccc1 (stereo not given),/,-11%,0.8%,-1%
CC(=O)c1cn(-c2ccc(Cl)cc2)c(=O)n(Cc2ccc(F)cc2)c1=O,4,0%,-3.1%,-2%
COc1cccc(/C=N/NC(=O)c2cccs2)c1,-1,-15%,1.1%,-41%
CCS(=O)(=O)N1CCc2nc(-c3ccccc3)sc2C1,/,4%,-0.6%,-42%
Nc1ccc(S(=O)(=O)c2ccc(N)nc2)cc1,/,-7%,-2.2%,/
CCCCS(=O)(=O)Nc1ccc(Cc2ccncc2)cc1,-5,-4%,2.3%,-2%
Cc1cccc(OCC(=O)N2CCC3(CC2)CC(=O)c2ccccc2O3)c1,/,11%,-2.1%,/
COc1cccc(CNCc2cccc(Br)c2)c1OC,8,-7%,-2.1%,-2%
CCOC(=O)c1cnc2ccc(C)cc2c1Sc1ccc(F)cc1,-19,11%,-0.4%,4%
FC(F)(F)c1cccc(N2CCC(N=CN3CCCCCC3)=N2)c1,-6,-3%,-1.6%,-38%
COc1ccc(NC(=O)Nc2cccc3ccccc23)c(OC)c1,/,2%,-1.3%,0%
CCN(CC)CCn1c2c(c(SCC(=O)Nc3ccccc3Cl)nc1=O)CCCC2,/,8%,1.0%,/
Cn1c(CNC(=O)c2ccc(Cl)cc2)nnc1SCC(=O)Nc1sc2c(c1C#N)CCCC2,1,2%,1.6%,4%
Cc1c(C(=O)N2CCOCC2)oc2ccccc12,/,-1%,-1.1%,/
NC(CO)C(=O)NNCc1ccc(O)c(O)c1O (stereo not given),6&-3&-2,-5%,-0.4%,?
O=C(Nc1cccc2ncccc12)c1cc2ccccc2o1,5,0%,-2.6%,-8%
N#C/C(=C\c1c(N2CCOCC2)nc2ccccn2c1=O)S(=O)(=O)c1ccccc1,3,-25%,?,-2%
Cc1csc(SCC(=O)NC23CC4CC(CC(C4)C2)C3)n1,-1,-9%,0.4%,-15%
Cc1cccc2c(Cl)cc(=O)[nH]c12,-4,/,/,-4%
CCC(COC)NCc1cn(-c2ccc(F)cc2F)nc1-c1ccccc1C (stereo not given),-5,-5%,-1.8%,-4%
COc1cc(Cl)ccc1OCc1cc(C(=O)NCC(C)c2ccccc2)no1 (stereo not given),/,11%,-0.3%,-6%
